# Bioassay records (PubChem)
# GALR2 agonist = activates the human galanin receptor 2; O43603; AID 803; 140,000 compounds, 0.48% hits; activation, %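 (tested at 5 µM)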; GALR2-expressing cells, agonist activation read-out;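 active = above mean plus 3 SD of all compounds, about 5% in these data, not always enough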;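 also: 0% = vehicle buffer wells and 100% = reference agonist at full effect; tested in CHO reporter cells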
# Target sequence (O43603 whole entry, looked up): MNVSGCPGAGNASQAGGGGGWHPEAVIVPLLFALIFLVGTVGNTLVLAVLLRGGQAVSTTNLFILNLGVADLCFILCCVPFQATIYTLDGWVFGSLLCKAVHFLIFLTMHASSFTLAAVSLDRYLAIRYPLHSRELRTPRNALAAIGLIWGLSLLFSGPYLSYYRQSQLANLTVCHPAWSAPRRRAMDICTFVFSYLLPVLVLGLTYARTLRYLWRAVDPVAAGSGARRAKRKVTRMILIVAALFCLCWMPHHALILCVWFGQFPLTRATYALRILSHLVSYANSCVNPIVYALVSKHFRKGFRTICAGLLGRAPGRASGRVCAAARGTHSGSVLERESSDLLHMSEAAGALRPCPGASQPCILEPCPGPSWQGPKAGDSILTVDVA
# RGS16-Gao = RGS16-Galphao interaction regulator (human) | O15492+P09471 | bead-based flow cytometry RGS16-Galphao binding, fluorescence; actives lie on both sides | binding response (% of control), % at 10 µM | 220,000 compounds, 0.38% hits;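 active = below 25% or above 175%, edge rows of some plates excepted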;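 also: Galphao activated by GDP with aluminum fluoride before binding; 100% = wells without compound and 0% = beads without RGS; some results beyond the cut were filed as inactive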
# Target sequence (O15492 whole entry, looked up): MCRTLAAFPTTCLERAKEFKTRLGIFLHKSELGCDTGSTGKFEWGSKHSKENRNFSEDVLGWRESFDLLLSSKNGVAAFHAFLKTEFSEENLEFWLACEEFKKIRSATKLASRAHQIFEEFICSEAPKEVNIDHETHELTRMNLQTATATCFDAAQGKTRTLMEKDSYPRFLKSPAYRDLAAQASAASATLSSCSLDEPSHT
# Target sequence (P09471 whole entry, looked up): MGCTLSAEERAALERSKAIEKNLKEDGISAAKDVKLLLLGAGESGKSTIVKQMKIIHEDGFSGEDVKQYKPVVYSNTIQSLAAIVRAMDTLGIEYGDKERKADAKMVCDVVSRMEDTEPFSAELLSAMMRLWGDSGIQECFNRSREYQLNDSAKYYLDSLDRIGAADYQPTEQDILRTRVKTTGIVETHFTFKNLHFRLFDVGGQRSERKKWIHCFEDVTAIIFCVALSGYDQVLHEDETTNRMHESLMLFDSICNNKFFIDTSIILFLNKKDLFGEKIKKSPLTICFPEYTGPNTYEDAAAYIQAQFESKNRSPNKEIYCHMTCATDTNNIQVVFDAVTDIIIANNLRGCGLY
# HSV replic up = increases HSV replication in cells. HSV replication augmentation in cells, fold increase. maximum fold increase. 220,000 compounds, 0.005% hits;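 active = peak rise of 1.5-fold or more in the series; inconclusive = self-fluorescent or not available for retest; tested in PC3 cells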;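 also: first round at 10 µM; read as green reporter fluorescence; hits show the peak of a series up to 25 µM; 1 = signal of infected wells without compound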
# Insulin prom inh = TRM-6 insulin promoter activity inhibition. TRM-6 cells (human fetal islet line), insulin promoter-eGFP reporter, imaging; reporter expression induced with tamoxifen. inhibition, % at 2 µM. 130,000 compounds, 0.9% hits. AID 1273;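 active = inhibition above the mean plus 3 SD, with well images judged a real hit on visual review, cut at about 60% in these data, passing the limit was not always enough; inconclusive = inhibition over the cutoff but images rejected on review; inactive = inhibition not above the cutoff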
# PKD1 inh = blocks activity of human protein kinase D1 | Q15139 | PKD1 kinase fluorescence polarization assay | inhibition, %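 (about 10 µM by stock and volumes)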 | 200,000 compounds, 0.056% hits;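 active = inhibition of 50% or more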;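 also: controls were vehicle for no effect and a reference inhibitor for full effect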
# Insulin prom inh cell count = also measured in Insulin prom inh; calls as there; normalized cell count, %; measured here: cell count, toxicity; reference of the scale not given here;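 cells exposed to compound for 48 h; stained nuclei by imaging scaled within each plate; lower means fewer cells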
# HSV replic up primary fold = recorded beside HSV replic up, whose call it bears; fold increase; compound at 10 µM; measured here: primary screen fold increase 10 uM; tested in PC3 cells;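 GFP signal in the first replicate; 1 = infected wells without compound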
# Active calls of the source: *; i = inactive; ? = inconclusive; nt = not tested or not shown. These rows are one share of the data; the hit share may differ from the screen's.
SMILES,GALR2 agonist,RGS16-Gao,HSV replic up,HSV replic up primary fold,Insulin prom inh,Insulin prom inh cell count,PKD1 inh
CCOc1ccccc1-n1c(O)c(C=NCc2ccc3c(c2)OCO3)c(=O)[nH]c1=O,-1.3,103.8,i,1.02,-9.1,52.4,5.5
Clc1ccccc1CN1CCN(c2ccccc2)CC1,-2.1,104.7,i,0.76,-45.2,78.0,0.4
COC(=O)C1C2c3ccccc3C(c3ccccc32)C1C(=O)OC (configuration not stated),nt,102.5,i,0.99,41.7,121.3,-4.2
CN1CCN(C(=O)COc2ccc3ccccc3c2Br)CC1,-2.0,100.9,i,0.74,30.4,128.5,-7.8
O=c1cccc2n1CC1CC2CN(S(=O)(=O)c2ccc(F)cc2)C1 (configuration not stated),nt,104.7,i,1,5.0,186.0,-4.5
Cc1c(C(=O)N2CCC3(CC2)OCCO3)sc2ncnc(N3CCN(c4ccccn4)CC3)c12,-1.5,89.4,i,0.88,3.1,101.9,4.3
O=c1c2ccccc2nc(/C=C/c2ccc3c(c2)OCO3)n1-c1ccccc1,0.7,103.5,i,1,nt,nt,-0.4
O=C1CCCC2C3CCCN4CCCC(CN12)C34 (configuration not stated),-3.2,102.5,i,0.81,-11.4,83.4,-3.2
Cc1ccc(NP(=O)(Nc2ccc(C)cc2)Oc2ccccc2)cc1,nt,96.9,i,0.91,nt,nt,-6.1
C/C(=N\N1CCCCCC1)c1c(O)n(-c2ccc(C)cc2)c(=O)[nH]c1=O,-0.3,101.8,i,1,13.8,175.6,-4.8
c1cc2c(cc1CCNC1C3CC4CC(C3)CC1C4)OCO2 (configuration not stated),-0.1,113.7,i,0.81,-19.1,109.2,-4.1
COc1nc(NC(C)C)nc(NC(C)C)n1,-1.1,105.8,i,0.97,13.9,42.6,3.5
CCCC(=O)Nc1ccc(N2CCN(CC)CC2)c(Cl)c1,-4.1,92.5,i,0.89,nt,nt,12.0
CC(=NCCCN1CCOCC1)c1c(O)[nH]c(=O)[nH]c1=O,-2.7,104.6,i,0.95,0.0,79.5,4.0
Cc1ccc2occ(CN3CC4CC(C3)c3cccc(=O)n3C4)c(=O)c2c1 (configuration not stated),-2.0,101.2,i,1.05,nt,nt,6.3

# Some of the entries so far, with two lines to a compound.
# The line under a structure holds: GALR2 agonist	RGS16-Gao	HSV replic up	HSV replic up primary fold	Insulin prom inh	Insulin prom inh cell count	PKD1 inh
- Clc1ccccc1CN1CCN(c2ccccc2)CC1
    -2.1	104.7	i	0.76	-45.2	78.0	0.4
- COC(=O)C1C2c3ccccc3C(c3ccccc32)C1C(=O)OC (configuration not stated)
    nt	102.5	i	0.99	41.7	121.3	-4.2
- CN1CCN(C(=O)COc2ccc3ccccc3c2Br)CC1
    -2.0	100.9	i	0.74	30.4	128.5	-7.8
- O=c1cccc2n1CC1CC2CN(S(=O)(=O)c2ccc(F)cc2)C1 (configuration not stated)
    nt	104.7	i	1	5.0	186.0	-4.5

# Next structures
SMILES,GALR2 agonist,RGS16-Gao,HSV replic up,HSV replic up primary fold,Insulin prom inh,Insulin prom inh cell count,PKD1 inh
O=C(N=Nc1c(O)[nH]c(=O)[nH]c1=O)C1COc2ccccc2O1 (configuration not stated),nt,108.1,i,0.84,4.8,60.5,-9.9
CN1CCN(c2ccc(C(F)(F)F)cc2N)CC1,nt,100.1,i,0.96,-28.6,101.3,3.7
CCCCn1c(=O)c(C=Nc2cc([N+](=O)[O-])ccc2OC)c(O)n(CCCCl)c1=O,0.3,102.3,i,1.07,38.5,102.6,-9.2
CC1(C)CC(=O)C=C(NCCN2CCN(C(=O)Cc3ccc(Cl)cc3)CC2)C1,-0.1,101.5,i,0.98,7.0,107.5,-7.5
CCN(CC)c1ccc(/C=C2/C(=O)NC(=O)N(CC3CCCO3)C2=O)cc1 (configuration not stated),-1.2,101.3,i,0.96,42.2,60.5,1.8
CCN(CC)CCCN=Cc1c(O)n(-c2cccc(C)c2C)c(=O)[nH]c1=O,-1.7,101.9,i,0.93,nt,nt,-0.9
O=C(O)c1nn(Cc2ccc(Cl)cc2Cl)c2ccccc12,nt,102.2,i,0.885,-13.3,109.0,-5.3
CC1=CC2/C=C(\C)CCC(O)C(O)/C=C/C(=O)C23C(=O)NC(CC(C)C)C3C1C (configuration not stated),nt,96.6,i,0.43,nt,nt,-2.2
COC(=O)c1c(C)n(Cc2ccccc2)c2ccc(O)cc12,nt,71.3,i,1.03,33.3,34.8,-3.7
COc1ccc(NC(=O)CN2CC=C(c3ccccc3)CC2)cc1S(=O)(=O)N1CCOCC1,nt,104.8,i,0.88,-110.0,178.7,-7.7
COc1cccc(C(=O)C2CCCN(Cc3ccccn3)C2)c1 (configuration not stated),nt,103.3,i,1.04,nt,nt,-2.4
CCOP(=O)(OCC)c1cccc(OP(=O)(c2cccc([N+](=O)[O-])c2)c2cccc([N+](=O)[O-])c2)c1,nt,104.9,?,nt,nt,nt,nt
Cn1c(O)c(C=NCCCN2CCCC2=O)c(=O)n(C)c1=O,-3.3,102.9,i,1.2,nt,nt,-10.6
CCCCn1c(O)c(C(C)=NCc2cccnc2)c(=O)[nH]c1=O,nt,98.5,i,1.25,nt,nt,nt
Cc1cc(/C=C2\C(=O)NC(=O)N(c3cccc(F)c3)C2=O)c(C)n1-c1cc(C(=O)O)cc(C(=O)O)c1,nt,102.9,i,0.98,nt,nt,12.2
C[C@@]1([C@@H](NP(=O)(c2ccccc2)c2ccccc2)c2ccccc2)C[C@H]1CCO,-1.5,104.9,i,0.72,-15.0,95.3,-4.5
O=Cc1cn(Cc2ccc(F)cc2)c2ccccc12,nt,109.9,i,0.88,33.3,88.4,2.5
O=Cc1cn(Cc2c(F)cccc2Cl)c2ccccc12,nt,105.0,i,0.95,20.0,95.4,-6.8
COc1ccc(/C=C2/C(=O)N(Cc3ccco3)C(=O)N(C(C)C)C2=O)cc1,-0.8,87.8,nt,nt,-42.9,66.9,5.5
c1ccc(C2N3CCCN23)cc1 (configuration not stated),-1.1,95.1,i,1.05,53.9,144.6,1.2
CCC(=NC1CC1)c1c(O)n(C2CCCCC2)c(=O)[nH]c1=O,-0.1,90.8,i,1.04,nt,nt,-7.8
C=Cn1ccnc1P(=S)(c1ccc(N(C)C)cc1)c1nccn1C=C,-1.4,102.6,i,0.99,-18.2,42.9,-7.7
COc1ccc(O)c(CN2CCCC(C(=O)c3ccccc3SC)C2)c1 (configuration not stated),nt,111.8,i,0.94,nt,nt,-2.6
O=[N+]([O-])c1cc(F)c(N2CCCC2)cc1N1CCNCC1,nt,101.1,i,1,-23.5,95.9,0.8
Cc1ncc([N+](=O)[O-])n1CCOc1nonc1N,nt,110.8,i,1.08,36.4,82.9,3.8
COc1cc2c(cc1OC)[C@@H]1C(=O)c3ccc4c(c3O[C@@H]1CO2)C[C@H](C(C)C)O4,nt,102.0,i,0.97,nt,nt,nt
CC(C)=CCC12CN3CCN(CC(C3)C1=O)C2,-0.6,142.1,i,0.74,nt,nt,0.3
O=C(COC(=O)Cc1ccccc1)NC12CC3CC(CC(C3)C1)C2,1.1,104.6,i,1,-13.2,185.7,-3.5
Cc1ccccc1-n1c(C)nc2ccccc2c1=O,nt,103.1,i,1,nt,nt,0.8
O=C(O)CCn1cc(C=C2C(=O)NC(=S)NC2=O)c(-c2cccc(Br)c2)n1,nt,96.9,i,1.03,nt,nt,3.2
C=CCN1C(=O)C2(C(C(=O)OCC)=C(N)Oc3c2c(=O)oc2ccccc32)c2ccccc21 (configuration not stated),-2.1,102.1,i,0.92,-69.6,136.2,2.3
CCCS(=O)(=O)N1CCCC(C(=O)N2CCC3(CC2)OCCO3)C1 (configuration not stated),-0.6,93.8,i,0.997,nt,nt,-0.9
Cn1cc[n+](C)c1P(=S)(c1ccccc1)c1ccccc1,nt,95.8,i,0.79,60.0,83.4,-1.0
NS(=O)(=O)c1ccc(N=Cc2c(O)n(-c3ccccc3)c(=O)[nH]c2=O)cc1,nt,90.8,i,1.07,11.1,39.1,-7.0
O=C(Nc1ccc2c(c1)OCO2)c1cn(Cc2ccc(F)cc2)nn1,-1.2,101.0,i,0.88,-107.1,59.2,-0.8
COc1ccc2ccc(O)c(CN3CC=C(c4ccccc4)CC3)c2c1,nt,102.3,i,1,nt,nt,1.9
CC(C)c1oc(=O)cc2c1[C@@H](O)[C@H]1OC(=O)[C@@]3(C)CC[C@@H](O)[C@@]2(C)C13 (some centres not stated),0.6,106.7,i,0.73,14.3,97.9,-17.1
CNCCc1c[nH]c2ccccc12,nt,103.4,i,0.89,nt,nt,-4.4
CC(=O)N(C1=NCCCS1)c1ccc(F)cc1,-1.0,100.1,i,0.96,-47.4,88.9,-0.6
CCCn1cc(C(=O)O)cn1,nt,99.3,i,1.04,nt,nt,-0.9
Cc1c(/C=C2/CC3C4CC=C5CC(O)CCC5(C)C4CCC3(C)C2=O)cnn1C (configuration not stated),-3.6,nt,nt,nt,16.7,107.8,-1.1
CCOC(=O)c1c(N)n(CCN2CCOCC2)c2nc3ccccc3nc12,1.2,102.3,nt,nt,i,37.6,-2.0
CC(=O)Nc1ccc(C(=O)OCC(=O)Nc2ccc(Cl)cc2C(=O)c2ccccc2)cc1,0.0,117.0,i,0.87,33.3,36.8,5.2
Nc1c(C(=O)NCCN2CCOCC2)c2nc3ccccc3nc2n1Cc1ccco1,0.8,99.3,?,nt,nt,nt,-7.2
Cc1ccc(C2SCC(=O)Nc3c2c(=O)[nH]n3C2CCOC(C)(C)C2)cc1 (configuration not stated),0.3,97.3,i,0.99,-50.0,194.0,-2.7
CCCC(=O)c1cc(CP(=O)(OCC)OCC)oc1C,nt,100.8,i,0.99,nt,nt,nt
CCCc1nc2ccccc2c(=O)n1-c1ccc(O)cc1,nt,97.3,i,0.94,nt,nt,-3.8
Cc1ccc(N2C(=O)NC(=O)C3(Cc4ccccc4N4CCCC43)C2=O)cc1 (configuration not stated),-2.0,100.7,i,0.8,-79.0,106.2,1.9
CCn1c(O)c(C=Nc2ccc(N3CCOCC3)c(Br)c2)c(=O)n(CC)c1=S,-2.9,98.1,nt,nt,2.8,78.0,-6.5
CCCCCCCCCCCCn1ccc(=N)cc1,nt,99.2,i,0.73,nt,nt,nt
CCC(=NCc1cccnc1)c1c(O)n(C2CCCCC2)c(=O)[nH]c1=O,-0.4,-79.3,i,1.02,nt,nt,-2.5
CC1CCCN(C(=O)CN2C3CCC2CC(O)(c2ccc(F)cc2)C3)C1 (configuration not stated),nt,106.4,i,1.06,-46.7,70.4,-5.5
CCOc1cc(CNC(C)C(O)c2ccccc2)cc(Cl)c1OCC (configuration not stated),0.0,97.2,i,0.67,nt,nt,-3.0
Cc1ccc2c(c1)C1CN(C)CCC1N2C(=S)Nc1cccnc1 (configuration not stated),nt,107.2,i,1.15,15.8,94.4,-5.0
N=c1ccccn1Cc1ccccc1,nt,104.9,i,1.03,nt,nt,-0.6
Cc1nc2cc(-c3ccccc3)nn2c(C)c1CCC(=O)N1CCC2(CC1)OCCO2,-0.6,101.6,i,0.88,-13.0,90.4,-5.3
CCOP(=O)(OCC)C1(C(=O)O)CCCC1,nt,102.9,i,1.24,nt,nt,nt
O=C(NCCN1CCCCC1)c1ccc(Cl)nc1Cl,nt,91.2,?,nt,nt,nt,0.0
C=CCOc1ccc(CC2C(=O)N(C)C(=O)N(C)C2=O)cc1,-0.8,92.5,i,0.81,31.6,100.0,-9.0
Cc1c(C(=O)Nc2ccccc2)cc(-c2ccccc2)n1CCCN1CCOCC1,nt,99.7,i,1,nt,nt,nt
# More compounds
SMILES,GALR2 agonist,RGS16-Gao,HSV replic up,HSV replic up primary fold,Insulin prom inh,Insulin prom inh cell count,PKD1 inh
COc1cc2c(C(=O)O)c(C)n(C)c2cc1Br,nt,83.0,i,0.99,nt,nt,-7.8
CCn1c(C)cc(/C=C2\C(=O)NC(=O)N(c3ccccc3C)C2=O)c1C,nt,102.6,i,0.99,nt,nt,-2.2
Cc1ccc(-c2nc3ccccc3c(=O)n2-c2ccccn2)cc1,-0.7,99.9,i,1.04,-11.1,117.8,2.8
Cc1nc2c(-c3ccccc3)c(C)nn2c(C)c1CCC(=O)N1CCC2(CC1)OCCO2,0.7,103.2,i,0.87,14.3,140.3,-4.2
Cc1ccc(-n2c(O)c(C=NCCC3=CCCCC3)c(=O)[nH]c2=O)cc1,nt,108.2,i,0.93,21.4,144.5,3.4
O=c1[nH]c(=O)n(Cc2ccc(F)cc2)c(O)c1/C=N/Nc1ccccc1,nt,100.6,i,1.06,nt,nt,nt
CCn1ccnc1CN1CCCC(C(=O)c2cc(Cl)ccc2OC)C1 (configuration not stated),nt,97.6,i,0.97,nt,nt,-3.9
Cc1ccc(C2=NN(CCC(=O)N3CCC4(CC3)OCCO4)C(=O)CC2)cc1,nt,100.4,i,0.94,nt,nt,-12.1
